gsp antagonist – qHTS for Antagonists of gsp, the Etiologic Mutation Responsible for Fibrous Dysplasia/McCune-Albright Syndrome: qHTS; AID 624288, 2012; Potency, µM (titrated, usually from 76.9 µM), without a hit: at the highest dose activity change, negative = inhibition, usual class: inhibitors; actives 0.4% (n = 340,000); gsp-mutant cells, cAMP HTRF, 30 min; control for the full effect not named in the record; active = falling curve of any shape with a large fitted effect; inconclusive = falling curve, mostly with a smaller effect; inactive = flat or rising curve; cell line not stated here;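 also: intracellular cAMP measured with PDE inhibitor Ro 20-1724 present during compound exposure; potency is read from the fitted curve at half-maximal effect; % is scaled to controls: 0 for no effect and ±100 for the full control effect; nearly all actives have a fitted effect of over 65% in size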
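Measurement of cellular cAMP by homogeneous time-resolved fluorescence following a 30 min compound exposure at 37C. The PDE inhibitor […] was present throughout; the assay buffer was DPBS with 0.05% BSA and 0.005% Tween 20.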
Menin MLL FP FL – qHTS Assay for Inhibitors Targeting the Menin-MLL Interaction in MLL Related Leukemias: Competition With Fluorescein Labeled MLL-derived Peptide; Fluorescence polarization, fluorescein-MLL peptide displacement from menin; 290,000 tested, under 10 active; FP activity change, % at 61.4 µM; inconclusive = falling polarisation curve, or a change in total fluorescence; inactive = total fluorescence flat and polarisation flat or rising; no compound was filed as active; the % refers to the polarisation; negative = inhibition;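 also: % of control where 0% means no effect; inhibitors lower the polarisation; unlabelled MLL peptide was the positive control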
gsp agonist – qHTS for Agonist of gsp, the Etiologic Mutation Responsible for Fibrous Dysplasia/McCune-Albright Syndrome: qHTS; gsp mutant cells, cAMP HTRF, 30 min; control for the full effect not named in the record; Potency, µM (top dose mostly 76.9 µM), inactives show top-dose activation (cAMP increase), usual class: activators; actives 0.13% (n = 340,000); AID 624287, 2012; active = well fitted activation curve with a large enough effect; inconclusive = small, poorly fitted or top-dose-only effect, or another doubt; inactive = no such curve, though single readings can be large or run the other way; cell line not stated here;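 also: phosphodiesterase inhibitor Ro 20-1724 added with compounds to block cAMP breakdown; potency is read from the fitted curve at half-maximal effect; nearly all actives have a fitted effect of over 60% in size; about a fifth of the inactives were tested at one dose only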
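Cells stably selected in G418 were plated at 2000/well, grown 16-24 hr, then given compounds in DMSO with the PDE inhibitor […] (300 uM solution added) for 30 min at 37C; cAMP was read by HTRF.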
TRPML1 blocker – qHTS for Inhibitors of the Human Mucolipin Transient Receptor Potential 1 (TRPML1) | AID 624415, 2012 | TRPML1-inducible cells, Ca2+ dye fluorescence, FDSS; hits give low values; inhibition of EC80 agonist-evoked calcium signal | activity change, negative = inhibition, % (test concentration not listed) | Mucolipin-1 (Homo sapiens), Q9GZU1 | actives 0.02% (n = 390,000); in the data active means activity change below about -50%; inconclusive means about -30% to -50%; inactive means above about -30%;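 also: stimulus is agonist 54-4 at its EC80 concentration; % is scaled to controls: 0 for no effect and ±100 for the full control effect; compound concentration not given in the record; the text of the record puts the active cut at -80%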
Target sequence (Q9GZU1 whole entry, looked up): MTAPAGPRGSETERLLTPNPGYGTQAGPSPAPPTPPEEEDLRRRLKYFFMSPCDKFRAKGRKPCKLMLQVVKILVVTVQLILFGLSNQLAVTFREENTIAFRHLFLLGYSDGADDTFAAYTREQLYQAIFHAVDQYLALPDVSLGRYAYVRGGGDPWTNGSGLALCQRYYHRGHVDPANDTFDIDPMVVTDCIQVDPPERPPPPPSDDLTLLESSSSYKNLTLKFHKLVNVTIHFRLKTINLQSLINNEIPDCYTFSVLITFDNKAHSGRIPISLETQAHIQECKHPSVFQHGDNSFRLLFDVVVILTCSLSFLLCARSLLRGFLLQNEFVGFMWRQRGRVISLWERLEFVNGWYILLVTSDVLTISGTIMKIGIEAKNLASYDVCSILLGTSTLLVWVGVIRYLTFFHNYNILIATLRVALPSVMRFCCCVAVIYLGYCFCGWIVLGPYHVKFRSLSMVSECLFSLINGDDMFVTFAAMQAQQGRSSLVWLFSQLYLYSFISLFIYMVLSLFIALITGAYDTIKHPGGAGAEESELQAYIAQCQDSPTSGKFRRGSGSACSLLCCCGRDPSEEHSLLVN
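Calcium fluorescence in TRPML1-DL cells induced overnight with Tet: a 110 s read after compound pin addition, then a 110 s antagonist read after challenge with 54-4 at 4 uM final (EC80).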
ClpP mod – qHTS Assay for Activators of ClpP; ATP-dependent Clp protease proteolytic subunit (Bacillus subtilis (strain 168)), P80244; purified B. subtilis ClpP, FRET peptide cleavage, 20 min; Potency, µM (highest dose often 57.5 µM), for inactives: at the top dose activity change, negative = active; actives 1.9% (n = 340,000); active = well fitted falling curve with a large enough effect; inconclusive = small, poorly fitted or top-dose-only effect; inactive = no such curve, though single readings can be large or run the other way; also: potency is read from the fitted curve at half-maximal effect; the source files actives as falling curves though it sought activators and does not explain the sign; nearly all actives have a fitted effect of over 65% in size; many hits overshoot -100%
Target sequence (P80244 whole entry, looked up): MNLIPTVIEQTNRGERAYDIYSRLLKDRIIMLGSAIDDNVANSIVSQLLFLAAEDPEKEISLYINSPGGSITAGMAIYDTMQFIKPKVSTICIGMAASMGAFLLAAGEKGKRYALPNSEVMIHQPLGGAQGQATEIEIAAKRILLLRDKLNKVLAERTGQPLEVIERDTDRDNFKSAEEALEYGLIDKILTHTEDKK
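Buffer: 100 mM Tris/HCl pH8, 100 mM KCl, 0.05% low protease BSA, 2.5% glycerol, 0.01% Tween-20. ClpP 10 microg/mL final; 20 min RT; delta FRET normalized to ADEP and DMSO controls.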
TRPML1 ag – qHTS for Agonists of the Human Mucolipin Transient Receptor Potential 1 (TRPML1); actives 0.12% (n = 410,000); activation, % (concentration not given with the values); TRPML1-expressing cells, Ca2+ dye fluorescence, FDSS; host cell line not named in the record; reference of the full effect not given here; Mucolipin-1 (Homo sapiens), Q9GZU1; in the data active = activation above about 50%; inconclusive = about 30% to 50%; inactive = below about 30%; also: 0% is about no effect; the text of the record puts the active cut at 80%
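Kinetic FDSS Ca2+ read in Tet-induced TRPML1-DL cells (ABD Ca8 dye plus quencher, 45-90 min RT loading): baseline, then compound, then 110 s agonist window; EC80 agonist 54-4 at 4uM final added afterwards for a 110 s antagonist window.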
Starred values were filed as active, the others as inactive; ? = inconclusive; / = no result given; [ ] = another dose, or the depositor's remark. Compounds as they come; about 2.1% have a hit in one of these screens.

SMILES	gsp antagonist	Menin MLL FP FL	gsp agonist	TRPML1 blocker	ClpP mod	TRPML1 ag
CC(C)(C)NC(=O)COc1ccc(-c2ccccc2)cc1	-16%	-0.5	26%	-8	-1.9%	-0.9
CCCc1cc(=O)[nH]c(SCc2ccc(C#N)cc2)n1	0%	0.3	18%	-5	0.7%	0.5
CCOc1ccc(Br)cc1S(=O)(=O)N1CCC(C(=O)O)CC1	-7%	-1.2	7%	1	/	-0.1
S=C(c1ccc(-c2cc(Cl)ccc2Cl)o1)N1CCOCC1	-6%	4.3	0%	7	-3.1%	1.6
Cc1ccc(S(=O)(=O)N2CCCC2CNC(=O)C(=O)Nc2ccc(F)cc2F)cc1 (configuration not stated)	0%	/	61%[15.4 µM]	27	0.6%	0.2
COC(=O)c1ccccc1NC(=O)Cn1nnc2sc(-c3ccccc3)cc2c1=O	/	/	/	-14	-12%	2.6
O=C(Nc1ccc(Cl)cc1C(=O)NCCN1CCOCC1)c1ccc(Cl)cc1Cl	-5%	0.0	-23%	11	0.6%	-0.9
COc1ccc(/C=C2\SC(=O)N(CCC(=O)Nc3ccc(S(=O)(=O)Nc4nccs4)cc3)C2=O)cc1	-19%	7.5	0%[15.4 µM]	1	1.0%	-0.6
COc1ccc(C2=C(N3CCN(c4cc(Cl)ccc4C)CC3)c3ccccc3C2=O)cc1	/	/	/	11	-0.8%	-1.0
COc1ccc(NC(=O)CCCN2C(=O)C3CC=CCC3C2=O)cc1 (configuration not stated)	9%	2.6	20%	-5	0.1%	0.0
COc1ccc(-n2nnnc2-c2cccc(OC)c2)cc1	3%	-0.1	11%	12	0.3%	3.8
COc1ccc(N(C)C(=O)NCc2noc3ccc(C)cc23)c(OC)c1	/	/	/	-23	1.1%	0.7
Cc1nc(NC(C)(C)CO)c([N+](=O)[O-])cc1[N+](=O)[O-]	-5%	3.1	-14%	13	/	-0.8
COc1ccc(-n2nc(C(=O)NCC(=O)NC3CCCC(C)C3C)c3ccccc3c2=O)cc1 (configuration not stated)	-16%	9.4	18%[15.4 µM]	10	/	0.0
Clc1ccc(COc2ccccn2)cc1Cl	-6%	1.5	3%	-10	-2.1%	-0.7
COc1ccc(CNC(=O)CN2N=C(c3ccc(Cl)cc3)CCC2=O)cc1	/	/	/	52	0.9%	0.4
CCOc1ccccc1-n1nnnc1SCC(=O)NC(=O)NCc1ccco1	-11%	5.2	2%	7	1.7%	1.6
O=C(OCCc1cc2ccccc2c(=O)o1)c1cccs1	-28%	/	2%	2	-7.0%	0.6
O=C(Nc1ccccc1)NC1CCCCC1	5%	5.3	?	6	0.6%	0.1
CCOc1ccc(C2C(C(C)=O)=C(O)C(=O)N2CCc2c[nH]c3ccccc23)cc1 (configuration not stated)	-2%	-0.2	5%	3	1.7%	0.3
CCN(CC)c1nc(-c2ccccc2)nc2c1sc(=S)n2CC	12%	-0.4	-6%[15.4 µM]	5	-0.3%	0.5
C/C(=N/NC(N)=S)c1cc2ccc(O)cc2oc1=O	1%	?	-34%	/	?	/
Cc1cccc(NC(=O)c2ccc3c(c2)CCN3S(=O)(=O)c2ccccc2)c1C	/	/	/	55	-1.2%	1.3
Cc1cccc(S(=O)(=O)N(C)C[C@H]2OCc3cnnn3CCCC(=O)N([C@@H](C)CO)C[C@H]2C)c1	/	/	31%	-19	-0.9%	-0.4
NC(=O)c1cccnc1Nc1cccc([N+](=O)[O-])c1	-18%	1.9	0%[15.4 µM]	4	0.5%	-0.5
SMILES	gsp antagonist	Menin MLL FP FL	gsp agonist	TRPML1 blocker	ClpP mod	TRPML1 ag
CCCn1c(=O)n(C)c(=O)c2c(SCC(=O)NCC(c3ccccc3)N(C)C)nc(CC(C)C)nc21 (configuration not stated)	-15%	/	-17%[15.4 µM]	-6	0.6%	-0.7
CCOC(=O)C1CCCN(C(=O)c2ccccc2Oc2ccccc2)C1 (configuration not stated)	0%	3.1	3%	12	-1.6%	0.5
CCCn1c(SCC(=O)N2CCc3ccccc3C2)nc2c1c(=O)n(C)c(=O)n2C	11%	1.9	32µM*	-7	-0.9%	-0.4
Clc1ccccc1OCc1nc(-c2ccccn2)no1	-1%	2.1	13%	20	-2.4%	-0.5
COC(=O)c1cccc(NC(=S)Nc2cccc(Cl)c2Cl)c1	15%	5.9	0%[15.4 µM]	8	-0.5%	-0.6
COc1ccc(C(=O)NCC(c2ccc(N(C)C)cc2)N2CCc3ccccc32)cc1 (configuration not stated)	/	/	/	8	-14%	0.8
CCOc1ccccc1N1CCN(C(=O)c2c(C)noc2C)CC1	3%	1.8	28%	15	-1.4%	-0.5
CN(C)S(=O)(=O)c1ccc(N2CCCC2)c(C(=O)NNC(=O)COc2ccccc2Cl)c1	14%	/	19%[15.4 µM]	17	10%	2.9
CCCCNC(=O)CSc1nc2ccc(NC(=O)CSc3nnc(N)s3)cc2s1	-7%	9.2	10%	15	-2.7%	2.4
CCOc1ccc(CC(=O)C2C(=O)CCCC2=O)cc1OCC	0%	-0.5	-42%	-13	-2.7%	0.8
Cc1cccc(C)c1Nc1c(-c2ccsc2)nc2ccc(Cl)cn12	/	/	/	-12	-19%	1.8
NC(=O)c1nsc(C(=O)N(CC(=O)NC2CCCCC2)c2cccc(F)c2)c1N	1%	-4.6	3%[15.4 µM]	17	/	-0.4
CCCCN(C(=O)c1ccc(-c2ccc(Cl)cc2)o1)c1c(N)n(CCCC)c(=O)[nH]c1=O	7%	/	?	-1	4.7%	0.9
Cc1cc(C)cc(NC(=O)CCNS(=O)(=O)c2cc(Br)cnc2N)c1	-14%	/	34%	2	-1.7%	-1.2
COc1ccc2c(c1)c1c(c(=O)n(-c3ccc(F)c(Cl)c3)c(=O)n1Cc1cccc(C)c1)n2C	/	/	/	-15	?	0.3
O=C(COc1ccccc1[N+](=O)[O-])N/N=C/c1ccccn1	12%	1.5	7%	28	-1.6%	0.5
COc1ccccc1/C=C/C(=O)OCC(=O)c1cc(C)n(C)c1C	-10%	/	-19%	-3	-14%	-0.2
Oc1ccc(/C=N/n2cnn(Cc3ccccc3Cl)c2=S)c(O)c1	-1%	1.7	2%	2	-0.6%	0.5
Oc1cc(CNCc2ccccc2)c(O)cc1CNCc1ccccc1	6%	/	-25%	0	/	1.1
CN(C)c1nc(OCc2ccccc2)c2ncc(=O)[nH]c2n1	1%	/	26%	6	3.9%	-1.2
COc1ccc(C2C3C(=O)N(Cc4ccccc4)C(=O)C3ON2c2ccccc2)c(OC)c1OC (configuration not stated)	0%[15.4 µM]	-2.8	15%	28	0.5%	1.0
COc1ccc(CNC(=O)c2cc3cccc4c3n2CC(C)S4)c(OC)c1 (configuration not stated)	/	/	/	41	14µM*	2.2
Oc1cc(-n2cccn2)c(O)cc1-n1cccn1	-1%	?	-25%	44	28µM*	-0.3
Cc1cc(C)cc(N(CC(=O)N/N=C/c2ccncc2)S(=O)(=O)c2ccccc2)c1	-23%	5.2	7%	-12	6.3µM*	-0.1
Cc1cc(NC(=O)COc2ccccc2)n(-c2ccccc2)n1	-4%	4.1	?	-12	-0.6%	0.2
SMILES	gsp antagonist	Menin MLL FP FL	gsp agonist	TRPML1 blocker	ClpP mod	TRPML1 ag
COc1cc(C=Cc2nnc3c4ccccc4cnn23)cc(OC)c1OC	/	/	?	6	124%	-0.2
CC(C)(C)c1csc(NC(=O)Cc2cccs2)n1	8%	12	-1%[15.4 µM]	-8	-8.4%	-0.1
COc1ccc2[nH]cc(CCN3C(=O)c4ccc(C(=O)O)cc4C3=O)c2c1	-3%	5.7	-3%[15.4 µM]	1	/	-0.3
Cc1cc2c(cc1S(=O)(=O)N(CCN(C)C)Cc1ccco1)OCC(=O)N2	/	/	/	-4	-0.7%	-0.2
COc1cc([N+](=O)[O-])cc(/C=N/NC(=O)CSc2ccccn2)c1O	-15%	9.2	-3%[15.4 µM]	24	/	1.2
N#CC1(NC(=O)Cn2cc(C(F)(F)F)ccc2=O)CCCC1	14%	/	-52%[inhibitor]	-12	2.0%	0.0
O=C(COc1cc(F)ccc1[N+](=O)[O-])N1N=C(c2cccs2)CC1c1ccco1 (configuration not stated)	-29%	/	-2%	-8	0.4%	0.9
N#CC1=C(N)Oc2n[nH]c(-c3cccnc3)c2C1c1cc(F)ccc1F (configuration not stated)	-1%	14	-15%[15.4 µM]	0	0.6%	-1.2
CCn1c(SCC(=O)N/N=C/c2ccc(O)c(OC)c2)nc2ccccc21	13%	2.2	-39%[inhibitor]	0	-0.2%	0.1
COc1ccc(C(=O)Nc2ccc(S(=O)(=O)N3CCCCC3)cc2)cc1	-23%	4.2	-10%	7	-2.1%	4.1
CC(C)N(C(=O)COC(=O)CCC(=O)c1cccs1)c1ccccc1	0%	/	-30%[inhibitor]	-9	-3.0%	0.5
CCN(CC)S(=O)(=O)c1cc(NC(=O)COC(=O)CCC(=O)c2ccc(F)cc2)ccc1C	-16%	5.6	21%	-5	0.4%	0.2

Screening results: PubChem, National Center for Advancing Translational Sciences (NCATS)
